High-throughput results as filed in PubChem BioAssay.
LT uptake inh: inhibitors of anthrax lethal toxin internalization; Cells, anthrax lethal toxin internalization, FRET ratio (460/530); Potency, µM (series often up to 40 µM), for the others: top-dose activity change, negative = inhibition, usual class: inhibitors; actives 0.67% (n = 70,000); AID 912; active = well fitted falling ratio curve with the 530 nm signal flat; inconclusive = other ratio curves, or a change in one channel alone; inactive = flat curves in the ratio and both channels; the % refers to the ratio; note: % is set by controls: 0 for no effect and ±100 for the full control effect; nearly all actives have a fitted effect of over 50% in size; tested in ME-180 cells; beta-lactamase reporter
Prx2 Sm inh: inhibitors of Schistosoma mansoni peroxiredoxin 2 | S. mansoni Prx2 activity coupled to TGR/GSH (TGR is thioredoxin glutathione reductase), NADPH fluorescence loss, qHTS; some inactives read as strong as hits | Potency, µM | actives 0.07% (n = 65,000) | AID 448; active means full or partial inhibition curve with a strong effect at the top dose; inconclusive means weaker partial or single-point curve; inactive means no accepted curve; note: series up to 57 µM; many of its hits are not listed in these tables
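Prx2 activity was followed as the loss of NADPH fluorescence (ex 365/em 450 nm), read every 30 sec for 8 min after H2O2 start. The enzyme mix (50 nM Prx2, 25 nM TGR, GSH, NADPH; pH 7.4 phosphate buffer) was incubated with compound for 15 min at room temperature first.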
The depositor's hits bear a star; ? = inconclusive; nt = not tested or not shown; [ ] = another dose, or the depositor's remark. Potency is the fitted concentration of half-maximal effect. These rows are one share of the data; count on the stated rates, not on these rows.

mol | LT uptake inh | Prx2 Sm inh
Oc1ccc2c3c1O[C@@H]1[C@@H](O)CC[C@]4(O)[C@H](C2)N(CC2CCC2)CC[C@@]314 | -6% | >57
CCCCN1C(=O)CN(CCc2ccccc2)C(=O)C1c1ccc(OC)cc1 (stereo not given) | 14% | >57
CC(C)c1ccc(NC(=O)c2csnn2)cc1 | ? | >57
O=C(COc1ccccc1)N(Cc1ccco1)C1CCS(=O)(=O)C1 (stereo not given) | ? | >57
COc1ccc(N2CCN(C(=O)c3ccc(NS(=O)(=O)c4ccc(F)cc4)cc3)CC2)cc1 | -9% | >57
COc1ccc(C(=O)OCC(=O)NCc2ccco2)cc1OC | -8% | >57
CS(=O)(=O)N1CCC2(CCCN(Cc3ccc(C#N)cc3)C2)CC1 | -3% | >57
NCCCN1CCN(c2ccccc2)CC1 | -1%[8 µM] | >57
OCCCNC(c1ccccc1)c1ccc(O)cc1 (stereo not given) | 20% | >57
CC1=CC[C@@H]2[C@@H](C1)c1c(O)cc(CC#CCCCNS(C)(=O)=O)cc1OC2(C)C | ? | nt
CN(C)S(=O)(=O)n1cnc(-c2ccccc2)c1-c1ccccc1 | -7% | >57
CC1(C)CC2CC(C)(CN2C(=O)COC(=O)c2n[nH]c(=O)c3ccccc23)C1 (stereo not given) | 1% | >57
CN(C)c1ncc2nc(-c3cc(F)cc(F)c3)c(=O)n(CCc3ccccc3)c2n1 | ? | >57
N#CCSc1ncnc2sc3c(c12)CCC3 | -13% | >57
CCCCC#CC1C=CC(Oc2ccc(C(=O)OC)cc2)C(COC(=O)OCC)O1 (stereo not given) | ? | nt
C=COC(=O)CSc1snc(SCC(=O)OC)c1C#N | -17% | >57
O=c1c2c3c(sc2nc2n1CCCC2)CCC3 | 0% | nt
CC1(C)NC(=O)N(CCOc2ccc3c(c2)CCC3)C1=O | -5% | >57
CCOc1ccc(N(CC(=O)NC2CCCC2)S(=O)(=O)c2c(C)[nH]c(=O)[nH]c2=O)cc1 | -1% | >57
CCN(CC)CCCNC(=O)Cc1c(C(=O)O)n(C)c2ccccc12 | -6% | >57
COc1ccc(-c2cc(C(N)=O)nc(N3CCCCCC3)n2)cc1 | 8% | >57
COc1cc(NC(=O)c2cc(C)on2)cc(OC)c1OC | 9% | >57
O=c1[nH]c(CN2CCc3ccccc32)nc2scc(-c3cccs3)c12 | ? | >57
COc1cc(Br)cc(CN2CCN(C/C=C/c3ccccc3)CC2)c1O | -8% | >57

Record cards (already shown). Order of values: LT uptake inh	Prx2 Sm inh
Entry for CCOc1ccc(N(CC(=O)NC2CCCC2)S(=O)(=O)c2c(C)[nH]c(=O)[nH]c2=O)cc1 : -1%	>57
Entry for COc1ccc(-c2cc(C(N)=O)nc(N3CCCCCC3)n2)cc1 : 8%	>57

(next part)
mol | LT uptake inh | Prx2 Sm inh
Cc1ccccc1CN1CCN(CC(=O)NCc2ccccn2)C1=O | 8% | >57
CCN1C(=O)N(CN2CCOCC2)C2C1N(CN1CCOCC1)C(=O)N2CC (stereo not given) | -21% | >57
N#CCCN(Cc1cccnc1)C(=O)Nc1cccc(Cl)c1 | -4% | >57
COCCNC(=O)C(c1cccs1)N(C(=O)Cn1nnc2ccccc21)c1ccc2c(c1)OCO2 (stereo not given) | -3% | >57
COC1(OC)C(=N/O)/C(=N\O)CCC1O (stereo not given) | -9% | >57
CC(C)NC(=O)c1cc(=O)n(C)c(=O)n1C | 9% | >57
O=C(COc1ccc(S(=O)(=O)N2CCCCC2)cc1)NC1CCCCC1 | -2% | >57
COc1cccc2c(=O)n(CC(=O)N3CCCCCC3)ccc12 | ? | >57
COc1ccc(N2CCCn3c2nc2c3c(=O)n(Cc3ccc(F)cc3)c(=O)n2C)c(OC)c1 | nt | >57
COCCNC(=O)CNS(=O)(=O)c1ccc2nc(C)sc2c1 | 8% | >57
CCc1c(C)nc2ncnn2c1NCCc1ccc(OC)cc1 | ? | >57
O=C(c1cccs1)N1CCN(CCc2ccccc2)CC1 | 8% | >57
Cc1cc(=O)n2[nH]c(COc3ccccc3)nc2n1 | -11% | >57
COc1ccccc1N(CC(O)CN1C(=O)NC(C)(C)C1=O)S(=O)(=O)c1ccc(C)cc1 (stereo not given) | 4% | nt
COC(=O)c1cc(NC(=O)Cc2coc3cc(OC)ccc23)cc(C(=O)OC)c1 | -7% | >57
O=C(c1cc(C(F)(F)F)cc(C(F)(F)F)c1)N1CCC2(CC1)CN(c1ccccn1)C2 | 13% | >11

5 consecutive compounds already listed:
mol | LT uptake inh | Prx2 Sm inh
CN(C)c1ncc2nc(-c3cc(F)cc(F)c3)c(=O)n(CCc3ccccc3)c2n1 | ? | >57
N#CCSc1ncnc2sc3c(c12)CCC3 | -13% | >57
CCCCC#CC1C=CC(Oc2ccc(C(=O)OC)cc2)C(COC(=O)OCC)O1 (stereo not given) | ? | nt
C=COC(=O)CSc1snc(SCC(=O)OC)c1C#N | -17% | >57
O=c1c2c3c(sc2nc2n1CCCC2)CCC3 | 0% | nt

Remaining list, next part:
mol | LT uptake inh | Prx2 Sm inh
O=C(CCCCCn1c(SCC(=O)c2ccccc2)nc2ccccc2c1=O)NCc1ccco1 | 13% | >57
COC(=O)CN(c1cccc(OC)c1)S(C)(=O)=O | 2% | >57
CC1CCCCN1CCCn1c(=S)[nH]c2ccccc2c1=O (stereo not given) | ? | >57
Cc1ccc(CSc2nnc(-c3ccccn3)n2C)cc1 | -13% | >57
NC(=O)c1ccc(-n2nnnc2Oc2ccccc2C(=O)N2CCOCC2)cc1 | -2% | >57
CCNC(=O)CN(Cc1ccccc1)S(=O)(=O)c1ccccc1 | 8% | >57
COc1ccc(C(=O)N2CCC3(CC2)CN(C(=O)Nc2ccccc2)C3)cc1 | 6% | >57
COc1ccc2[nH]cc(CCNc3ncncc3-c3ccc4c(c3)OCO4)c2c1 | ? | >57
O=C(NC1=NCCS1)C1COc2ccccc2O1 (stereo not given) | 0% | >57
O=C(OCc1ccccc1)c1ccc(Br)o1 | nt | >57
O=c1oc2ccccc2c(O)c1C=NCc1ccccn1 | -6% | >57
COc1cccc(-c2cn3nc4c(nc3n2)CCCC4)c1 | ? | >57
N#Cc1cccc(NC(=O)c2ccccc2C(=O)O)c1 | -1% | >57
Cc1noc(C)c1-c1nc(NCc2cccnc2)c2ccccc2n1 | ? | >57
O=C(Oc1ccc2ccccc2c1Cl)N1CCCC1 | ? | >57
S=c1[nH]nc(SCc2ccccc2Cl)c2[nH]cnc12 | -2%[8 µM] | >57
COc1ccc(Cn2c(C3CC3)nc3ccc(NC(=O)c4ccco4)cc3c2=O)cc1 | -15% | >57
CCn1nc(C(=O)OCC(=O)NCCN2C(=O)CSC2=O)c2ccccc2c1=O | -14% | >57
COc1ccc2nc(NC(=O)CCNS(=O)(=O)c3ccc4c(c3)oc(=O)n4C)sc2c1 | 1% | >57
CCSc1nnc2c(n1)[nH]c1c(C)cccc12 | -25% | >57
O=C1CCCN1CCCNc1ncnc2c1cnn2-c1ccc(Cl)cc1 | ? | >57
C[C@H]1CC[C@@]2(NC1)O[C@@H]1C[C@H]3[C@@H]4CC[C@@H]5C[C@@H](O)CC[C@@]5(C)[C@@H]4CC[C@]3(C)[C@@H]1[C@@H]2C | 2%[3.58 µM] | >57
C[C@@H](c1ccccc1)N1C(=O)[C@H]2[C@H]3[C@H](O)[C@H](O)C/C(=N/OCc4ccccc4)[C@@H]3CC[C@@H]2C1=O | 10%[1.6 µM] | nt
CCOC(=O)Cn1c(=N)n(Cc2ccccc2)c2ccccc21 | 4% | >57
COc1ccc(-c2noc(CCCC(=O)NCc3ccco3)n2)cc1OC | 11% | >57
Cc1ccc(S(=O)(=O)c2c(N)n(NC(=O)C3CC3)c3nc4ccccc4nc23)cc1 | ? | >57
Cc1ccc(CNC(=O)C(C)OC(=O)c2ccco2)cc1 (stereo not given) | 17% | >57
CCOc1ccc(NC2=NCC(=O)N2CCc2ccccc2)cc1 | -11% | >57
Cc1c(C(=O)OCC(=O)N(CCC#N)c2ccccc2)oc2c1ccc1ccccc12 | -14% | >57
CCOC(=O)/C=C1\SCC(=O)N1CC(=O)c1ccc[nH]1 | 6% | >57
Cc1cc(OCC(=O)Nc2cc(-c3nn4c(C)nnc4s3)ccc2C)ccc1Cl | 22% | >57
O=c1c(-c2cc(F)cc(F)c2)nc2cnc(N3CCNCC3)nc2n1-c1ccccc1 | ? | >57
Cc1cccc(C(=O)N2CCC(n3nnc4cc(F)ccc43)CC2)c1 | -6% | >57
O=C(C1CCN(S(=O)(=O)c2cccc3cccnc23)CC1)N1CCCC1 | 21% | >57
CC(C)NC[C@@H](O)COc1ccccc1-n1cccc1 | ? | >57
CCCCCn1c(=O)[nH]c2cc(C(=O)NCCN(CC)CC)ccc2c1=O | -10% | >57
O=C(Cn1cc2c(n1)CCCCC2)NCc1ccccn1 | 3% | >57
O=C1CCN(S(=O)(=O)c2ccccc2)C2CCCCC12 (stereo not given) | ? | >57
COc1ccc(OCc2ccc(C(=O)O)cc2)cc1 | -14% | >57
COCCn1nnnc1C(c1cc2ccc(C)cc2[nH]c1=O)N(Cc1ccco1)Cc1cccs1 (stereo not given) | -8% | >57
O=C1c2ccccc2C(=O)N1CCC(=O)N1CCc2ccccc21 | 4% | >57
CCCCCCN=C(C)C1=C(O)C(C(=O)OC)C(C)(C)CC1=O (stereo not given) | nt | >57
O=C(Nc1ccc2c(c1)OCCO2)c1ccc(Br)c(S(=O)(=O)N2CCOCC2)c1 | ? | >57
Cn1c(=O)c2c(nc(CN3CCN(C(=O)c4ccco4)CC3)n2Cc2ccccc2)n(C)c1=O | 14% | >57
O=C1c2ccccc2C(O)(c2ncc[nH]2)N1C1CCCCC1 (stereo not given) | -7% | nt
CCOC(=O)N1CCC(NC(=O)c2cc3c(-c4cccc(OC)c4)nn(C)c3s2)CC1 | -6% | >57
Cc1nc2ccc(F)cc2cc1C(=O)NCC1CCCO1 (stereo not given) | -1% | >57
CC(C)(C)NS(=O)(=O)c1ccc(CCC(=O)NCc2ccco2)cc1 | 0% | >57
COc1cc(=O)[nH]c(=O)n1C(=O)Cc1ccccc1 | -4% | nt
C=C[C@@]1(C)C=C2CC[C@@H]3[C@](C)(CCC[C@@]3(C)C(=O)O)[C@H]2CC1 | ? | >57
CCOc1ccc(CNC(=O)C2CC(=O)N(C3CCCC3)C2)cc1OC (stereo not given) | 2% | >57
O=C(Nc1ccc(-c2cn3ccsc3n2)cc1)c1ccc(F)c(S(=O)(=O)N2CCOCC2)c1 | ? | >57
Cc1onc(-c2c(F)cccc2Cl)c1C(=O)Nc1nc2c(s1)CCCC2 | ? | >57
O=C(Nc1ccc2c(c1)OC1(CCCC1)O2)C1CC1 | 10% | >57
Nc1c(C(=O)NCCc2ccccc2)nnn1Cc1ccccc1 | 1% | >57
CCC1=Nc2ccccc2-c2nnc(SC)nc2O1 | -6% | >57

Next part
mol | LT uptake inh | Prx2 Sm inh
O=C(CSc1nnc(C2CC2)n1Cc1ccccc1)c1ccc(S(=O)(=O)N2CCOCC2)cc1 | ? | >57
CCCOc1ccc(-c2nnc(-c3ccco3)o2)cc1 | -17% | >57
CN1CCN(c2nc(N3CCN(c4ccccc4)CC3)ncc2F)CC1 | ? | >57
N[C@@H](Cc1cc(Br)c(O)c(Br)c1)C(=O)O | ? | >57
C=C1N(CCCCCC(=O)O)C(=O)OC12CCCCC2 | 0% | >57
Cc1cc(C)n2nc3ccccc3c2n1 | -14% | >57
O=C1c2ccccc2C(=O)N1CCCCCc1nc(-c2ccccc2)no1 | ? | >57
O=C(NC1CCCC1)c1ccc2nc(-c3ccco3)c(-c3ccco3)nc2c1 | -28% | >57
CC(C)(C)c1cc(C(=O)N2CCc3ccccc32)ccn1 | 2% | >57
CCCS(=O)(=O)N1CCc2cc(OC)c(OC)cc2C1 | -3% | >57
CN(C)CCCNc1oc(-c2ccccc2)nc1C#N | -17% | ?
Cn1c(=O)c2c(nc(N3CCc4ccccc4C3)n2Cc2ccccc2F)n(C)c1=O | -4% | >57
CCOC(=O)c1ccc2ncc(C(=O)OCC)c(NCc3ccco3)c2c1 | -1% | >57
CN(Cc1ccco1)c1nc(-c2ccccc2Cl)nc2ccccc12 | ? | >57
O=C(COC(=O)c1cccc(S(=O)(=O)N2CCc3ccccc3C2)c1)NCc1ccco1 | -7% | >57
COC(=O)CSc1nc2ccccc2c(=O)n1C | -12% | >57
CCN1CCN(CCCNC(=O)C2c3ccccc3C(=O)N(C)C2c2ccc(OC)cc2)CC1 (stereo not given) | 13% | >57
CC(C)(C)n1ncc2c(=O)n(Cc3ccc(Cl)cc3Cl)cnc21 | -7% | >57
Cc1sc2ncn(CCn3cnc4sc(C)c(C)c4c3=O)c(=O)c2c1C | ? | >57
CC12CC(NC(=O)N1CCc1ccccc1)c1cc(Cl)ccc1O2 (stereo not given) | -5% | >57
COc1ccc(Cc2nn3c(-c4ccccc4Br)nnc3s2)cc1 | ? | >57
